VACV mCherry inh – inhibitors of vaccinia virus infection (mCherry reporter signal); Vaccinia virus mCherry reporter infection, fluorescence; about a quarter of the inactives have no number; 310,000 tested, 0.63% active; Potency, µM (doses to about 36.5 µM), for inactives: at the top dose activity change, negative = inhibition, actives largely listed as inhibitors; active = well fitted inhibition curve with a large enough effect; inconclusive = small, poorly fitted or top-dose-only effect; inactive = no such curve, though single readings can be large or run the other way; tested in A549 cells; further: nearly all actives have a fitted effect of over 35% in size; inactives centre near -10
Vaccinia Venus – vaccinia inhibition (Venus reporter); AID 720580; Vaccinia virus Venus reporter expression, fluorescence; Potency, µM (doses to about 36.5 µM), inactives show at the top dose activity change, negative = inhibition, most hits filed as inhibitors; 330,000 tested, 0.46% active; active means well fitted inhibition curve with a large enough effect; inconclusive means small, poorly fitted or top-dose-only effect; inactive means no such curve, though single readings can be large or run the other way; tested in A549 cells; further: nearly all actives have a fitted effect of over 30% in size; inactives centre near -10
Numbers without * were called inactive; & = joins results of further samples; [ ] = dose if it differs, or a comment. On the % scale 0 is the no-effect control and ±100 the full control effect; potency means the concentration at half of the fitted maximal effect.

O=C(O)c1ccc2nc(CO)[nH]c2c1 was read as VACV mCherry inh -12% and Vaccinia Venus -16%.
Screening O=c1c2ccccc2cnn1Cc1nnc(-c2cccs2)o1 returned VACV mCherry inh -10% and Vaccinia Venus -4%.
For COC(=O)[C@@H]1CCCN1C(=O)c1cnn(-c2ncc3c(n2)-c2ccccc2CCC3)c1C1CC1 the results were VACV mCherry inh -5% and Vaccinia Venus -3%.
C=CCN1C(=O)/C(=C\c2ccc(OC(=O)c3ccco3)c(OC)c2)SC1=S was read as VACV mCherry inh 237%[activator].
For CCN1CCCC1CNC(=O)Cn1cc2c(n1)CCC(C)C2 (configuration not stated) the results were VACV mCherry inh -7% and Vaccinia Venus -1%.
`CC1=CC(C)(C)[N+](C)(C)c2ccc(C)cc21` gave VACV mCherry inh -23% and Vaccinia Venus -25%.
Screening O=C(c1ccccc1)c1ccc(Oc2ccc([N+](=O)[O-])cc2[N+](=O)[O-])cc1 returned VACV mCherry inh inconclusive and Vaccinia Venus -2%.
COC(=O)Cc1cc(=O)n2[nH]c(C(F)(F)F)nc2n1 was read as Vaccinia Venus 3%.
`O=C(c1cc2n(n1)C(C(F)(F)F)CC(c1ccco1)N2)N1CCc2ccccc2C1` (configuration not stated) gave VACV mCherry inh -11% and Vaccinia Venus -14%.
Cc1ccc(NC(=O)C2(C)CCN2CCc2ccccc2)cc1O (configuration not stated) was read as VACV mCherry inh inconclusive and Vaccinia Venus -12%.
`CC(=O)c1cccc(NC(=O)/C(=C\c2cccnc2)NC(=O)c2ccco2)c1` gave VACV mCherry inh inactive and Vaccinia Venus 6%.
`CCCC(=O)Nc1ncnc2c1ncn2[C@@H]1O[C@@H]2OP(=O)(O)OC[C@H]2[C@H]1OC(=O)CCC` gave VACV mCherry inh -14% and Vaccinia Venus -6%.
Screening O=C(COc1ccc(Cl)cc1)Nc1ccccc1CO returned Vaccinia Venus -17%.
`CCc1nc2c(OCc3ccc(F)c(F)c3)cccn2c1N(C)C(=O)c1ccc(C)cc1` gave VACV mCherry inh -4% and Vaccinia Venus -6%.
`CCN(CC)C(=O)OCCc1cc2ccccc2c(=O)o1` gave VACV mCherry inh -24% and Vaccinia Venus -13%.
Cc1ccc2[nH]c(-c3ccccc3)c(CN3CCCC3)c(=O)c2c1 was read as VACV mCherry inh -25% and Vaccinia Venus inconclusive.
Screening COc1cc(C2c3cc4c(cc3C(O)C3COCC23)OCO4)cc(OC)c1OC (configuration not stated) returned VACV mCherry inh inconclusive and Vaccinia Venus -8%.
`CCN1C[C@]2(COC)C(O)C[C@H](OC)[C@@]34C5C[C@]6(O)C(OC)C(O)[C@](OC(C)=O)(C5C6OC(=O)c5ccccc5)C(C(OC)C23)C14` (some centres not stated) gave VACV mCherry inh -15% and Vaccinia Venus -8%.
`Cc1ccc(-n2nc(-c3cccs3)cc2C(=O)NCC2CCCO2)c(C)c1` (configuration not stated) gave VACV mCherry inh inactive and Vaccinia Venus -17%.
CCCCN(C(=O)Nc1ccc(Cl)cc1)C1CCN(C(C)=O)CC1 was read as VACV mCherry inh -10%&-16% and Vaccinia Venus -12%&-11%.
For CC1(C(=O)NCc2ccccc2)Cc2c(-c3ccc4c(c3)OCO4)ccnc2O1 (configuration not stated) the results were VACV mCherry inh inactive and Vaccinia Venus -19%.
`Cc1ccc(NC(=O)CN(C)C(=O)CCOc2ccccc2C)cc1` gave VACV mCherry inh -19% and Vaccinia Venus -4%.
O=C(CSc1nnc(-c2ccccc2Br)n1-c1ccccc1)c1ccc(F)cc1 was read as VACV mCherry inh -14% and Vaccinia Venus -13%.
Screening O=C(N/N=C/c1ccc(OC(=O)c2ccccc2)c([N+](=O)[O-])c1)c1ccc(O)cc1 returned VACV mCherry inh -22% and Vaccinia Venus -15%.
For NS(=O)(=O)c1ccc(CCNC(=O)CCc2ccccc2)cc1 the results were VACV mCherry inh -5%[7.34 µM] and Vaccinia Venus -7%[7.34 µM].
For CCN(C=NC1=NN(c2cccc(C(F)(F)F)c2)CC1)CC the results were VACV mCherry inh inactive and Vaccinia Venus -27%.
Cc1nn(C(C)C(=O)c2cccc(Cl)c2)c(C)c1[N+](=O)[O-] (configuration not stated) was read as VACV mCherry inh inconclusive and Vaccinia Venus 5%.
O=C(NCN1C(=O)C2C3C=CC(C3)C2C1=O)Nc1nncs1 (configuration not stated) was read as VACV mCherry inh -13%[1.46 µM] and Vaccinia Venus -4%.
For CCOC(=O)N1CCN(S(=O)(=O)c2ccc(OC)c(C(=O)N3CCCCC3)c2)CC1 the results were VACV mCherry inh -6% and Vaccinia Venus 2%.
Screening Cc1c(-c2ccc(F)cc2)[n+](=O)c2c(n1[O-])CCCCC2 returned VACV mCherry inh 1% and Vaccinia Venus -10%.
For O=C(CSc1nc(=O)[nH]c2c1CCCC2)Nc1cc(C(F)(F)F)ccc1Cl the results were VACV mCherry inh -11%[7.34 µM] and Vaccinia Venus -16%[7.34 µM].
`CC1CCC(C(C)C)C(OC(=O)CSc2nnc(N)s2)C1` (configuration not stated) gave Vaccinia Venus -39%.
COc1ccc(S(=O)(=O)N2CCCCC2)cc1NC(=S)Nc1cccc(Cl)c1C was read as VACV mCherry inh inactive and Vaccinia Venus -8%.
`COc1ccc(/C=C\c2cc(OC)c(OC)cc2CC[N+](C)(C)C)cc1OC` gave VACV mCherry inh -14% and Vaccinia Venus -5%.
Screening CCOC(=O)COc1ccc(S(=O)(=O)N2CCN(c3ccccc3)CC2)cc1 returned VACV mCherry inh -22% and Vaccinia Venus -24%.
For CCn1cc(C(=O)N2CCN(c3ccc(OC)cc3)CC2)c(=O)c2cc(S(=O)(=O)N(C)C3CCCCC3)ccc21 the results were VACV mCherry inh -9% and Vaccinia Venus -1%.
Cc1cccc(C)c1NC(=O)C1c2ccccc2OCC(=O)N1CCc1ccccc1 (configuration not stated) was read as VACV mCherry inh 4% and Vaccinia Venus 11%.
CC(C)n1cnc2c(Nc3cccc(Cl)c3)nc(NCCCO)nc21 was read as VACV mCherry inh inconclusive and Vaccinia Venus 10µM*.
COc1ccc(CNc2n[nH]c(NCc3ccc(OC)c(OC)c3)n2)cc1OC was read as Vaccinia Venus -9%.
Screening COc1cc2[nH]c(=O)n(CCC(=O)N3CC=C(c4ccccc4)CC3)c(=O)c2cc1OC returned VACV mCherry inh -8% and Vaccinia Venus -1%.
N/C(CSc1nc(-c2ccccc2)c(-c2ccccc2)o1)=N\O was read as Vaccinia Venus -22%.
`O=C(Cn1cc2c(n1)CCCC2)NCc1cccnc1` gave VACV mCherry inh -7% and Vaccinia Venus -5%.
For COc1ccc(CN2CCC[C@]3(N[C@H](c4ccc(OC)cc4)[C@@H]4C(=O)N(Cc5ccccc5)C(=O)[C@@H]43)C2=O)cc1 the results were VACV mCherry inh -10% and Vaccinia Venus -21%.
`CCCCN1C(=O)C(CC(=O)NC2CCCCC2)CC(C(=O)N(C(C)C)C(C)C)=C1C` (configuration not stated) gave VACV mCherry inh -10% and Vaccinia Venus -19%.
Screening COc1ccc(C2=NN(C(=O)CSc3nc4ncc(Cl)cc4[nH]3)C(c3ccco3)C2)cc1 (configuration not stated) returned VACV mCherry inh inactive and Vaccinia Venus -15%.
Screening COc1ccc(NC(=O)CSc2nnc(C)c(=O)n2N)cc1 returned VACV mCherry inh inactive and Vaccinia Venus -10%.
`COc1ccc(-c2ccc(=O)n(CC(=O)Nc3ccc(N(C)C)cc3)n2)cc1` gave VACV mCherry inh -7% and Vaccinia Venus -5%.
For COCCNC(=O)c1ccc2c(c1)ncn2-c1ccc(F)c(F)c1 the results were VACV mCherry inh inconclusive and Vaccinia Venus -14%.
`COc1ccc(NC(=O)CN2C(=O)COc3ccc(S(=O)(=O)N4CCCCC4)cc32)c(OC)c1` gave VACV mCherry inh inactive and Vaccinia Venus -13%.
`CCOc1ccc(-n2c(Cc3ccccc3)nnc2SCc2nc(-c3ccccc3C)no2)cc1` gave VACV mCherry inh -11% and Vaccinia Venus -12%.
For Cc1ccccc1-n1nnnc1SC1CCOC1=O (configuration not stated) the results were VACV mCherry inh -12% and Vaccinia Venus -9%.
For COc1cccc(OCCNC(=O)c2cccc(OC)c2)c1 the results were Vaccinia Venus -15%.
For Clc1cccc(N2Cc3ccccc3-n3nncc3C2)c1 the results were VACV mCherry inh 44%[activator] and Vaccinia Venus 1%.
Screening O=C(Nc1ccccc1C(=O)Nc1ccccc1)c1ccccc1Br returned VACV mCherry inh -17% and Vaccinia Venus -13%.
For COc1ccc(S(=O)(=O)Cc2ccc(C(=O)NCc3ccc(C)cc3)o2)cc1 the results were VACV mCherry inh inactive and Vaccinia Venus -16%.
`COc1cc(OC)cc(C(=O)N2CCN(S(C)(=O)=O)CC2)c1` gave VACV mCherry inh -24% and Vaccinia Venus -2%.
`CC1CCN(CC(=O)Nc2ccc(Br)cc2[N+](=O)[O-])CC1` gave VACV mCherry inh -4% and Vaccinia Venus -8%.
Screening COc1ccc2nc(SC(C(=O)c3ccccc3)c3ccccc3)nc(C)c2c1 (configuration not stated) returned VACV mCherry inh inactive and Vaccinia Venus -22%.
Screening COc1ccc(CCN2CC(C(=O)NCCc3ccccc3)CC2=O)cc1OC (configuration not stated) returned VACV mCherry inh inactive and Vaccinia Venus -12%.
Screening COc1cc(-c2cnc3ccccc3c2)cc2c1OCCN(C(=O)Cn1nccc1C)C2 returned VACV mCherry inh -4% and Vaccinia Venus -1%.

Retrieved by structure from the list above, five records:
For COc1cccc(OCCNC(=O)c2cccc(OC)c2)c1 the results were Vaccinia Venus -15%.
Screening O=C(Nc1ccccc1C(=O)Nc1ccccc1)c1ccccc1Br returned VACV mCherry inh -17% and Vaccinia Venus -13%.
`COc1ccc(-c2ccc(=O)n(CC(=O)Nc3ccc(N(C)C)cc3)n2)cc1` gave VACV mCherry inh -7% and Vaccinia Venus -5%.
For Cc1ccccc1-n1nnnc1SC1CCOC1=O (configuration not stated) the results were VACV mCherry inh -12% and Vaccinia Venus -9%.
`CCOc1ccc(-n2c(Cc3ccccc3)nnc2SCc2nc(-c3ccccc3C)no2)cc1` gave VACV mCherry inh -11% and Vaccinia Venus -12%.

Further results follow.
`COc1ccc([N+](=O)[O-])cc1NC(=O)c1ccccc1SC` gave VACV mCherry inh -15% and Vaccinia Venus -11%.
O=C(CN1C(=O)NC2(CCCC2)C1=O)N1CCN(S(=O)(=O)c2ccc(Cl)cc2)CC1 was read as VACV mCherry inh inactive and Vaccinia Venus -16%.
COc1ccc(N(CC(C)C)S(=O)(=O)c2nnc(NC(=O)c3cccs3)s2)cc1 was read as VACV mCherry inh 4% and Vaccinia Venus -7%.
For CCN(C(=O)Cn1cc(C(F)(F)F)ccc1=O)C1CCS(=O)(=O)C1 (configuration not stated) the results were VACV mCherry inh inactive and Vaccinia Venus -8%.
For COc1ccc(CCNC(=O)CN2C(=O)c3ccccc3S2(=O)=O)cc1 the results were Vaccinia Venus -4%.
Screening COC(=O)[C@]12CCCCC=C1N(Cc1ccc3c(c1)OCO3)C(=O)[C@H](CC(=O)N1CCN(C(=O)c3ccco3)CC1)C2 returned VACV mCherry inh 16% and Vaccinia Venus -10%.
For CCN1c2ccccc2-c2nc(SCC(=O)Nc3ccc(C)c(Cl)c3)ncc2S1(=O)=O the results were VACV mCherry inh -21% and Vaccinia Venus -13%.
For COc1cccc(/C=C2\Oc3cc(OCC(=O)N4Cc5ccccc5C[C@H]4C(=O)O)ccc3C2=O)c1 the results were VACV mCherry inh 11% and Vaccinia Venus 35%[activator].
COCCNC(=O)C(=O)Nc1ccc(Br)cc1 was read as VACV mCherry inh -3% and Vaccinia Venus -5%.
For Cc1nc(-c2ccccc2)ccc1C(=O)O the results were VACV mCherry inh inactive and Vaccinia Venus -4%.
Screening CCCc1nc(N2CCN(C)CC2)c2sc(=S)n(-c3ccccc3)c2n1 returned VACV mCherry inh -16% and Vaccinia Venus -5%.
Screening CCn1cc2nc(SCc3cc(C)ccc3C)n(Cc3ccc(C)cc3)c(=O)c2n1 returned VACV mCherry inh inconclusive and Vaccinia Venus -23%.
c1ccc(NCc2nc(-c3ccccc3)no2)cc1 was read as VACV mCherry inh inactive and Vaccinia Venus -8%.
Screening Cc1ccccc1CNS(=O)(=O)c1c(C(=O)N2CCCCC2)c(C)n(C)c1C returned VACV mCherry inh -22% and Vaccinia Venus -8%.
COc1ccc(/C=C2\N=C(SC)N(C)C2=O)cc1 was read as VACV mCherry inh -11% and Vaccinia Venus -7%.

Structures from the list above that contain a COOH group, in the order listed:
O=C(O)c1ccc2nc(CO)[nH]c2c1 was read as VACV mCherry inh -12% and Vaccinia Venus -16%.
For COc1cccc(/C=C2\Oc3cc(OCC(=O)N4Cc5ccccc5C[C@H]4C(=O)O)ccc3C2=O)c1 the results were VACV mCherry inh 11% and Vaccinia Venus 35%[activator].
For Cc1nc(-c2ccccc2)ccc1C(=O)O the results were VACV mCherry inh inactive and Vaccinia Venus -4%.

The list continues:
Screening Cc1ccc(C)c(NC(=O)CSc2nc(-c3ccccc3)c(C#N)c(=O)[nH]2)c1 returned VACV mCherry inh 2% and Vaccinia Venus -2%.
Screening O=C(NNC1CC(=O)N(c2ccccc2)C1=O)c1cccnc1 (configuration not stated) returned VACV mCherry inh -2% and Vaccinia Venus -3%.
N=c1n(CCN2CCCCC2)c2ccccc2n1CC(O)COc1ccccc1 (configuration not stated) was read as VACV mCherry inh -9% and Vaccinia Venus -22%&-9%.
Cc1ccc(CN2COc3ccc4c(-c5ccccc5)cc(=O)oc4c3C2)cc1 was read as VACV mCherry inh -9% and Vaccinia Venus -10%.

Not a hit list. Share with any hit: about 0.87%.
